Screening data deposited in PubChem BioAssay by National Center for Advancing Translational Sciences (NCATS).
miR-21 reporter: miR-21 reporter, rising signal. HeLa miR-21 FLuc reporter, luciferase, 48 h. Potency, µM (titrated, usually from 38.3 µM), without a hit: top-dose reporter change, positive = more light. 340,000 tested, under 10 active. AID 2288; active = well fitted rising curve with a large enough effect; inconclusive = small, poorly fitted or top-dose-only effect; inactive = no such curve, though single readings can be large or run the other way;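 also: % of control where 0% means no effect; miR-21 action dims this reporter so a rising signal means less miR-21 action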
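Luminescence from a firefly luciferase reporter carrying a miR-21 binding site downstream, stably expressed under a CMV promoter in HeLa cells that make miR-21 endogenously, reports miRNA modulation after 48 h compound exposure up to approximately 40uM final.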
Rango complex inh: prevents formation of the Rango-importin beta complex; Q14974; Rango CFP/YFP FRET sensor + importin beta, 45 min; Potency, µM (series often up to 92.2 µM), without a hit: at the highest dose inhibition of complex formation; 340,000 compounds, 0.031% hits; active = rising FRET ratio curve, often small or poorly fitted; inconclusive = mostly compound fluorescence or quenching in the first reads; inactive = flat curves in all reads;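 also: potency is read from the fitted curve at half-maximal effect; 0% = DMSO wells and 100% = buffer wells lacking importin beta; nearly all actives have a fitted effect of over 15% in size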
Target sequence (Q14974 whole entry, looked up): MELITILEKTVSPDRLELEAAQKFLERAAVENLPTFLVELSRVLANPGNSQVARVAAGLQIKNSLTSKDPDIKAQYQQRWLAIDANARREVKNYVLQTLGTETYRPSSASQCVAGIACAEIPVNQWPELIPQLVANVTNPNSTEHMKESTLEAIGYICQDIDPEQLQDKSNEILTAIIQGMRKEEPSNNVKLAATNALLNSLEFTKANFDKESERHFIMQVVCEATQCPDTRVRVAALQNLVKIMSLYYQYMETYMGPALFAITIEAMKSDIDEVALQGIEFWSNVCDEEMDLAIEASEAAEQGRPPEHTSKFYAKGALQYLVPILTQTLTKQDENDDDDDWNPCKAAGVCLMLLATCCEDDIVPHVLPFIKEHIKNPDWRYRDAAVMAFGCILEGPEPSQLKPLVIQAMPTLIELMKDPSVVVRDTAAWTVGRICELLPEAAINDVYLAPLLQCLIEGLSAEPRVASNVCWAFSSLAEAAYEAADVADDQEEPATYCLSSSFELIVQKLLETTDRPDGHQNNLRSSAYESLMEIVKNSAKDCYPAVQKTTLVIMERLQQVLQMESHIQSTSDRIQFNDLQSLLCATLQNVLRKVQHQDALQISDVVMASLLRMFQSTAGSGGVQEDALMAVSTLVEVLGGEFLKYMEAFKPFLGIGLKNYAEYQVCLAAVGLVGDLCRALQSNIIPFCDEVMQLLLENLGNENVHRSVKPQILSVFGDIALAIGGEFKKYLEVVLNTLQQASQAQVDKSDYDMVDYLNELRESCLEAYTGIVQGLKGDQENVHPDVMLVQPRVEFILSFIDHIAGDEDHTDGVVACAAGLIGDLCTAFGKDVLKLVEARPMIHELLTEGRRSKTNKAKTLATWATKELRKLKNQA
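Inhibition scored from the CFP 486 nm/YFP 530 nm FRET ratio 45 min after adding 0.125 microM importin beta to 50 nM Rango biosensor preincubated 5 min with compound (room temperature, PBS with DTT, Tween-20, BSA). No-importin wells as positive control.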
GLA inh pH 4.5: alpha-galactosidase A (human) inhibition, pH 4.5. activity change, negative = inhibition, % at 105 µM. 230,000 tested, under 10 active. P06280. AID 1467. purified enzyme, 4-MU-alpha-Gal fluorescence, pH 4.5; inconclusive = small, poorly fitted or top-dose-only inhibition, or a rising curve; inactive = flat fitted curve, though single readings scatter; no compound was filed as active;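 also: 0% = full activity with enzyme and -100% = basal without enzyme; dose as in the result columns while the protocol names 77 µM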
Rango dissoc inh: inhibitors of RanGTP-induced Rango-importin beta complex dissociation; Potency, µM (titrated, usually from 46.1 µM), inactives show at the top dose activity change, negative = inhibition; 340,000 compounds, 0.071% hits; Biochemical FRET Rango-importin beta, RanGTP-induced dissociation; active means falling FRET ratio curve, often poorly fitted, with flat reads before Ran was added; inconclusive means other falling curves, or compound fluorescence or quenching; inactive means flat or rising ratio curve;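 also: potency is read from the fitted curve at half-maximal effect; % of control where 0% means no effect; nearly all actives have a fitted effect of over 45% in size; -100% = wells without RanGTP and RCC1; the record marks most hits as doubtful in a second field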
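Rango/importin beta premix (0.1/0.25 uM final), PBS + 1 mM DTT + 0.02% Tween-20 + 0.1% BSA; cpd 5 min RT; FRET pre-read; + RanGTP-RCC1 (0.6 uM Ran, 2 mM GTP, 0.2 uM RCC1); 45 min RT; FRET post-read, ex 430, em 486/530 nm.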
* = called active by the depositor; ? = inconclusive; . = no result given; & = joins results of further samples; [ ] = dose if it differs, or a comment.

SMILES	miR-21 reporter	Rango complex inh	GLA inh pH 4.5	Rango dissoc inh
CN(C)/N=C/c1ccc(Sc2ccccc2[N+](=O)[O-])o1	-5%	2.9%	-7	12%
COc1cc(OC)cc(C(=O)NNC(=O)c2ccc3c(c2)OCCO3)c1	.	-0.3%	.	3%
O=c1[nH]c2ccccc2n1Cc1ccc(Cl)cc1	4%	0.1%	2	-2%
COc1cccc(-c2ccc(SCC(=O)N3CCc4ccccc43)nn2)c1	-6%	.	-6	.
COc1ccc(CCNS(=O)(=O)c2cc(C(=O)O)c(Cl)cc2Cl)cc1	-4%	-1.5%	2	11%
COc1ccc2c3n(nc2c1)CCN=C3c1cc(Cl)c(N)c(Cl)c1	.	-0.3%	.	26%
COCCCNC(=S)N/N=C/c1ccc(OC)cc1	-16%	-1.4%	-4	21%
O=S(=O)(NCC(c1cccnc1)N1CCN(c2ccc(F)cc2)CC1)c1ccccc1 (stereo not given)	.	6.6%	.	14%
CCN(CC)C(=O)C[n+]1ccc(C(N)=O)cc1	-3%	-2.3%	-17	16%
CC(=O)Nc1ccc(NC(=O)c2cc(-c3ccccc3)nc3ccccc23)cc1	4%	-1.9%	.	-8%
CCOC(=O)N1CCc2c(sc(NC(=O)c3ccc(Cl)s3)c2C(N)=O)C1	14%	.	-3	.
Cc1cc([N+](=O)[O-])nn1CC(=O)Nc1sc2c(c1C(N)=O)CCCC2	-2%	1.4%	-3	-8%
S=C(Nc1ccc(Br)cc1Cl)NC1CCN(Cc2ccccc2)CC1	?	0.0%	-8	6%
CC1CCCC(NCC(=O)Nc2ccc(C(N)=O)cc2)C1C (stereo not given)	-7%	-1.2%	-21	5%
NNC(=O)c1ccc(CN2CCCCC2)o1	-3%	-2.8%	3[21.1 µM]	3%
O=C(c1ccc(N2CCCCS2(=O)=O)cc1)N1CCN(c2ccc(N3CCOCC3)nn2)CC1	-16%	?	2	-3%
CCCCN(CC)Cc1c(C)[nH]c2ccccc2c1=O	-6%	-1.7%	5	17%
CC(=O)O[C@@H]1C[C@H]2C(C)(C)C(=O)C=C[C@]2(C)[C@H]2CC[C@@]3(C)[C@H](c4ccoc4)OC(=O)[C@H]4O[C@]43[C@@]21C	?	1.9%	-7	-2%
CC(=O)c1ccc(N2CCN(C(=O)Nc3ccc(C(C)C)cc3)CC2)cc1	?	-0.3%	-8	-16%
O=C(c1ccc(C#CC2(O)CCCCC2)cc1)N1CCN(Cc2ccccc2)CC1	9%	1.7%	5	-17%
CN(CCC#N)C(=O)c1cc2c(Cl)nc3ccccc3c2s1	-1%	-2.6%	.	-2%
O=C(O)CC/C(=N/NC(=O)CNC(=O)Cc1ccc(Cl)cc1)c1ccccc1	2%	-1.8%	-2	2%
COc1ccc(C2=NN(C(=O)c3ccccc3)C(c3ccccc3)C2)c(O)c1 (stereo not given)	-1%	1.4%	.	-6%
O=C(c1ccoc1)N1CCC2(CC1)Oc1ccc(F)cc1C(=O)C21CC(c2ccc(Cl)cc2)=NO1 (stereo not given)	14%	-2.8%	-29	10%
COc1ccc(NC(=S)NC(=O)c2ccc(Br)o2)cc1	-64%	1.9%	1	2%
COc1cccc(Nc2ncc(C#N)c(N)n2)c1	-32%	-0.3%	2	0%
CC(=O)c1cc2c(cc1NC(=O)C1CCC1)OCO2	0%	0.7%	-13	?
Cc1ccsc1C=Nc1ccc(O)cc1	23%	-3.3%	1	-2%
O=C(CSc1nc2ccccc2s1)NCc1ccc2c(c1)OCO2	-10%	-4.4%	-1	0%
CC(=O)Oc1ccc(/C=C(\NC(=O)c2ccco2)C(=O)NCc2ccco2)cc1	-5%	0.1%	.	6%
CCC(=O)c1ccc(O)c(CC=C(C)C)c1	16%	0.5%	-10	-12%
Cc1ccnc(NC(=O)COc2ccccc2[N+](=O)[O-])c1	-34%	.	0	.
CCOc1ccccc1C1C(C#N)=C(N)Oc2n[nH]c(CC)c21 (stereo not given)	-2%	-3.5%	5	?
COc1cc2c(cc1OC)C(c1cccc(Br)c1)CC(=O)N2 (stereo not given)	-11%	1.5%	.	-8%
COc1ccccc1-c1nc2ccccc2nc1-c1ccccc1OC	-4%	0.1%	3	8%
CCOC(=O)C1(CCOC)CCN(Cc2nc(-c3cccs3)oc2C)CC1	0%	0.8%	0	-3%
O=C(COC(=O)c1ccco1)NCCc1ccc(Cl)cc1	.	3.0%	.	-24%
CN1CCN(C(=O)c2ccc3c(c2)N(Cc2ccc(Cl)cc2)C(=O)c2ccccc2S3=O)CC1 (stereo not given)	-8%	-2.6%	-7	7%
CCn1cc(C(C)NC(=O)Nc2ccc3c(c2)OCO3)c(C)n1 (stereo not given)	0%	1.9%	4	3%
CC(=O)c1ccc(N2CCN(c3ccccc3O)CC2)c([N+](=O)[O-])c1	1%	-0.2%	.	9%
CCOC(=O)c1cc2c(C)n(-c3ccc(C)cc3)c(C)c2ccc1=O	3%	?	2	?
COc1ccc(NC(=O)CN2C(=O)N(C)Cc3ccccc32)c(C)c1	-6%	1.1%	-2	31%
Cc1ccccc1-c1nc(CN2CCC(C(=O)NCCC3=CCCCC3)CC2)c(C)o1	3%	-4.4%	-19	-8%
Cc1ccc(NCc2cccnc2)c(Br)c1	-28%	1.7%	2	25%
CCCC1CCC(=C(C#N)C(N)=O)CC1 (stereo not given)	-1%	1.7%	-16	-13%
Cc1noc(C)c1NC(=O)N(C)C[C@H]1Oc2c(NC(=O)Nc3ccccc3)cccc2C(=O)N([C@H](C)CO)C[C@@H]1C	.	0.9%	.	?
OC(CN1CCN(c2ccccn2)CC1)Cn1c2ccccc2c2ccccc21 (stereo not given)	18%	2.8%	-5	-4%
C=CCNC(=O)c1sc(-c2ccccc2)nc1C	-44%	1.4%	3	0%
CCCNc1nc2ccccc2n2c(C)nnc12	-3%	-1.3%	.	6%
O=C(Cn1c(CO)nc2ccccc21)NCCc1ccc(F)cc1	-2%	1.2%	1	-20%
Cc1oc2c(c(C)cc3oc(=O)c(CC(=O)N[C@@H](C)C(=O)O)c(C)c32)c1C	-5%	?	.	3%
Cc1c(NC(=O)c2ccccc2NS(=O)(=O)c2ccc(Br)cc2)c(=O)n(-c2ccccc2)n1C	1%	0.0%	-1	8%
Cc1cc(NC(=O)CSCc2ccccc2C)no1	-5%	-1.5%	0	5%
Cc1cc(NC(=O)C2CCCN2C(=O)Nc2c(C)cccc2C)ccc1-n1cnnn1 (stereo not given)	-7%	-1.3%	-6	7%
O=c1c2ccccc2cnn1-c1nc2ccccc2[nH]1	?	-2.5%	-3	-4%
O=C(O)/C=C\C(=O)Nc1ccc(OC(F)F)cc1	3%	3.4%	2	10%
CCn1cc(C(=O)Nc2cccc(NC(C)=O)c2)c2cc(OC)c(OC)cc2c1=O	0%	-0.1%	-4	-6%
CC1CCCCN1CCNC(=O)CN1C(=O)CSc2ccc(S(=O)(=O)N3CCCCC3)cc21 (stereo not given)	-3%	-0.6%	.	-2%
O=S(=O)(Cc1ccccc1)NCC1CCCN(Cc2cccc3nonc23)C1 (stereo not given)	-3%	-0.2%	-27	-19%
CC(=O)C1=C(O)C(=O)N(CCC(=O)O)C1c1ccc(Cl)cc1Cl (stereo not given)	2%	0.2%	0	-7%

(listing goes on)
SMILES	miR-21 reporter	Rango complex inh	GLA inh pH 4.5	Rango dissoc inh
O=C(CSc1nc(-c2ccccc2)cs1)NC(=O)NCc1ccco1	16%	0.6%	-6	1%
C/C=C/c1ccc(Oc2nnnn2-c2ccc(C(N)=O)cc2)c(OC)c1	-2%	-1.8%	0	16%
OCCC1CN(Cc2cccc(O)c2)CCN1CCc1ccccc1 (stereo not given)	4%	-0.1%	4	1%
CCCS(=O)(=O)N1CCN(C(=O)c2ccco2)CC1	-3%	-0.7%	4	0%
Cc1nc2sc(C(c3cccs3)N3CC(C)CC(C)C3)c(O)n2n1 (stereo not given)	-3%	-0.5%	4	8%
COc1ccc(CC(=O)Nc2cc(S(C)(=O)=O)ccc2Cl)cc1S(=O)(=O)N1CCOCC1	.	?	.	0%
CSc1ccccc1NC(=O)COC(=O)CCc1ccccc1	2%	-4.1%	.	0%
CC(=O)NS(=O)(=O)c1ccc(NC(=S)NC(=O)C(C)(C)C)cc1	1%	4.3%	-16	-7%
O=C(CCN1C(=O)c2ccncc2C1=O)NCc1ccc(Cl)cc1	2%	4.3%	-8	6%
COc1ccc(S(=O)(=O)N/N=C\c2ccc([N+](=O)[O-])o2)c(OC)c1	-4%	-1.5%	.	-6%
CC(Sc1nnc2ccccn12)C(=O)NCc1ccc2c(c1)OCO2 (stereo not given)	-1%	-0.8%	0	-5%
CC1CCC(NC(=O)c2ccc(CS(=O)(=O)Cc3ccccc3F)o2)CC1 (stereo not given)	3%	-1.2%	2	-1%
CC(CN(C)C)CN1c2ccccc2CCc2ccccc21 (stereo not given)	-13%	-2.2%	-4&-9&-7	-15%
Cc1ccc(C(=O)NC(=S)Nc2ccc(N3CCOCC3)cc2)c(C)c1	-4%	4.2%	5	24%
COc1ccccc1CNC(=O)COC(=O)C1CCN(S(=O)(=O)c2ccccc2)CC1	.	-3.5%	.	0%

One compound at a time (already shown). Screens in order: miR-21 reporter, Rango complex inh, GLA inh pH 4.5, Rango dissoc inh
Cc1ccc(C(=O)NC(=S)Nc2ccc(N3CCOCC3)cc2)c(C)c1 is listed with -4%, 4.2%, 5, 24%
Cc1nc2sc(C(c3cccs3)N3CC(C)CC(C)C3)c(O)n2n1 (stereo not given) is listed with -3%, -0.5%, 4, 8%
CSc1ccccc1NC(=O)COC(=O)CCc1ccccc1 is listed with 2%, -4.1%, ., 0%
CC(=O)NS(=O)(=O)c1ccc(NC(=S)NC(=O)C(C)(C)C)cc1 is listed with 1%, 4.3%, -16, -7%

Structures from the list above with a furan ring, fused or not (twelve):
SMILES	miR-21 reporter	Rango complex inh	GLA inh pH 4.5	Rango dissoc inh
CN(C)/N=C/c1ccc(Sc2ccccc2[N+](=O)[O-])o1	-5%	2.9%	-7	12%
NNC(=O)c1ccc(CN2CCCCC2)o1	-3%	-2.8%	3[21.1 µM]	3%
CC(=O)O[C@@H]1C[C@H]2C(C)(C)C(=O)C=C[C@]2(C)[C@H]2CC[C@@]3(C)[C@H](c4ccoc4)OC(=O)[C@H]4O[C@]43[C@@]21C	?	1.9%	-7	-2%
O=C(c1ccoc1)N1CCC2(CC1)Oc1ccc(F)cc1C(=O)C21CC(c2ccc(Cl)cc2)=NO1 (stereo not given)	14%	-2.8%	-29	10%
COc1ccc(NC(=S)NC(=O)c2ccc(Br)o2)cc1	-64%	1.9%	1	2%
CC(=O)Oc1ccc(/C=C(\NC(=O)c2ccco2)C(=O)NCc2ccco2)cc1	-5%	0.1%	.	6%
O=C(COC(=O)c1ccco1)NCCc1ccc(Cl)cc1	.	3.0%	.	-24%
Cc1oc2c(c(C)cc3oc(=O)c(CC(=O)N[C@@H](C)C(=O)O)c(C)c32)c1C	-5%	?	.	3%
O=C(CSc1nc(-c2ccccc2)cs1)NC(=O)NCc1ccco1	16%	0.6%	-6	1%
CCCS(=O)(=O)N1CCN(C(=O)c2ccco2)CC1	-3%	-0.7%	4	0%
COc1ccc(S(=O)(=O)N/N=C\c2ccc([N+](=O)[O-])o2)c(OC)c1	-4%	-1.5%	.	-6%
CC1CCC(NC(=O)c2ccc(CS(=O)(=O)Cc3ccccc3F)o2)CC1 (stereo not given)	3%	-1.2%	2	-1%

This is a subset; count on the stated rates, not on these rows.
